# Epigenetic derep = Quantitative High-Throughput Screen for Regulators of Epigenetic Control; murine LDR cells, GFP reporter derepression, 30 h; Potency, µM (top dose mostly 53.9 µM), without a hit: at the highest dose GFP activation, usual class: activators; 0.2% of 280,000 active; AID 1865, 2009; note: potency is the fitted concentration of half-maximal effect; % of control where 0% means no effect; nearly all actives have a fitted effect of over 60% in size
#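 Readout is the number of GFP-expressing murine LDR cells, counted by cytometry following washing. Cells were treated with compound for 30 h at 37 C; the stably integrated CMV-GFP locus is normally silent.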
# Luc counter = Counterscreen for Luciferase (Kinase-Glo TM) Inhibition. AID 1379, 2008. 0.28% of 200,000 active. Luciferin 4-monooxygenase (Photuris pensylvanica), Q27757. Potency, µM (series often up to 38.3 µM), without a hit: at the top dose activity change, negative = inhibition, actives largely listed as inhibitors. Kinase-Glo luciferase, ATP luminescence, 8 min; note: potency is the fitted concentration of half-maximal effect; % is set by controls: 0 for no effect and ±100 for the full control effect; nearly all actives have a fitted effect of over 60% in size
#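 Inhibition of Kinase-Glo luciferase light generation was assessed at 10 uM ATP in pH 7.2 imidazole buffer, with luminescence measured after eight minutes at ambient temperature.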
# NPSR antagonist = qHTS Assay for Antagonists of the Neuropeptide S Receptor: cAMP Signal Transduction. Q6W5P4. CHO-NPSR cells, cAMP TR-FRET, antagonist mode. Potency, µM (titrated, usually from 38.3 µM), without a hit: at the top dose activity change, negative = inhibition, usual class: inhibitors. 1% of 220,000 active. AID 1461, 2008; note: potency is the fitted concentration of half-maximal effect; % is set by controls: 0 for no effect and ±100 for the full control effect; nearly all actives have a fitted effect of over 50% in size; many of its hits are not listed in these tables
# Target sequence (Q6W5P4 whole entry, looked up): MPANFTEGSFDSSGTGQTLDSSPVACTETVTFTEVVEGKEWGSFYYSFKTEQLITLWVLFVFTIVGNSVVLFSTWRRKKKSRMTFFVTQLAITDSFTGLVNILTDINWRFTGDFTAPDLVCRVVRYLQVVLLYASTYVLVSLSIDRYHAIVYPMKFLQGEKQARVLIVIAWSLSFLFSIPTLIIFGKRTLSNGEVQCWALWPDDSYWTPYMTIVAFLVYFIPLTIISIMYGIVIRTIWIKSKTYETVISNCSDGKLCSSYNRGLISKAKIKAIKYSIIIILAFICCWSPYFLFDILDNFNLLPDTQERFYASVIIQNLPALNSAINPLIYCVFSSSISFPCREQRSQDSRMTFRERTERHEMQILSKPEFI
# IMPase Li inh = qHTS Assay for Identifying the Cell-Membrane Permeable IMPase Inhibitors: Potentiation with Lithium; CHO-M1 cells, IP1 TR-FRET (IP-One), carbachol + lithium; Potency, µM (highest dose often 59.4 µM), inactives show top-dose activity, negative = IMPase inhibition, actives largely listed as inhibitors; 0.35% of 210,000 active; AID 1457, 2008;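 note: IP1 builds up when IMPase is blocked and the TR-FRET signal falls; potency is the fitted concentration of half-maximal effect; plate controls were basal vehicle for no effect and high inhibitor control for full effect; nearly all actives have a fitted effect of over 50% in size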
#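 Test compounds were applied to CHO-M1 cells previously cultured for 16–30 h at 2000 per well. A small lithium amount accompanied them; after 30 min at 37C, IP1 was quantified by TR-FRET.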
# HTT aggregate = qHTS Multiplex Assay to Identify Dual Action Probes in a Cell Model of Huntington: Aggregate Formation (GFP); 1.1% of 220,000 active; PC12 HttQ103-GFP aggregates, Acumen cytometry, 40 h; Potency, µM (highest dose often 46.1 µM), without a hit: at the top dose activity change, negative = inhibition, most hits filed as inhibitors; note: potency is the fitted concentration of half-maximal effect; % is set by controls: 0 for no effect and ±100 for the full control effect; nearly all actives have a fitted effect of over 60% in size
#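 PC12/HTTQ103-GFP, ecdysone-inducible; teb 100 nM; cpd qHTS titration; GFP aggregates read on laser cytometer, Ex 488/Em 500-530 nm.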
# CBFb RUNX1 block = qHTS Assay for Compounds Blocking the Interaction Between CBF-beta and RUNX1 for the Treatment of Acute Myeloid Leukemia. Runt-related transcription factor 1 (Homo sapiens) + Core-binding factor subunit beta …. AlphaScreen CBFb-His/RUNX1-biotin binding, biochemical. Potency, µM (top dose mostly 59.8 µM), for the others: at the top dose activity, negative = inhibition, most hits filed as inhibitors. 230,000 tested, under 10 active. AID 1477, 2009; note: % of control where 0% means no effect
# Target sequence (Q01196 whole entry, looked up): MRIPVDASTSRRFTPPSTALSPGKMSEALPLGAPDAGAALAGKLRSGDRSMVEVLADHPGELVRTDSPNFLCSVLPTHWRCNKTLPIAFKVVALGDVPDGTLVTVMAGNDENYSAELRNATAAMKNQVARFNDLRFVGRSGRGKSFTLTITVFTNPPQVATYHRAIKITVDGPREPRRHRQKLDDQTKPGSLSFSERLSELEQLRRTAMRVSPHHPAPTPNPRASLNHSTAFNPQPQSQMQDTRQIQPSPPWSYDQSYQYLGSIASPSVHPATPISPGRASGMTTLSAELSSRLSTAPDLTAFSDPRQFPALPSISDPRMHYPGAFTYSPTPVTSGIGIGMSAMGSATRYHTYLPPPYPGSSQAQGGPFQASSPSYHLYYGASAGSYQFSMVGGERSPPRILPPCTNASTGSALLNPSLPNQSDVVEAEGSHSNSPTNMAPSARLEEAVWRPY
# Target sequence (Q13951 whole entry, looked up): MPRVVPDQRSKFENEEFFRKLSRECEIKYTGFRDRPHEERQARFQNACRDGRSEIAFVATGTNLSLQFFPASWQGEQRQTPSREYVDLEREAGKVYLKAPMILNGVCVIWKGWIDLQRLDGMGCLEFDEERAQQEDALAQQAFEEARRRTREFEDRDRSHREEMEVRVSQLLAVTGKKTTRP
#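 AlphaScreen binding: CBFb-His and RUNX1-biotin (30 nM each) preincubated 20 min, compound added for 15 min, then nickel and streptavidin beads for 90 min, all at room temperature. Disruption of the interaction by any mechanism counts as activity.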
# An asterisk follows results filed as active; ? = inconclusive; / = no result given; [ ] = remark or other dose. Calls come from the whole dose curve; as a rule, active = well fitted curve in the direction sought with a large enough effect; inconclusive = small, poorly fitted or top-dose-only effect, or another doubt; inactive = no such curve, though single readings can be large; an effect the other way counts as inactive or inconclusive.
SMILES,Epigenetic derep,Luc counter,NPSR antagonist,IMPase Li inh,HTT aggregate,CBFb RUNX1 block
Cc1cc(NC(=O)c2cnccn2)no1,-0.3%,0%,-3%[46.1 µM],-1%[38.3 µM],13%,-3%
Cc1nn(-c2ccccc2)c2[nH]c(=O)c(CNCC3CCCO3)cc12 (stereo not drawn),-0.7%,-2%,-1%[46.1 µM],-5%[38.3 µM],-15%,1%
NC(=O)c1ccsc1NC(=O)COC(=O)Cc1ccsc1,-2.2%,0%,-7%[46.1 µM],12%,-14%,1%
O=C(O)C1C2C=CC3(CN(Cc4ccco4)C(=O)C13)O2 (stereo not drawn),0.0%,-2%,4%[46.1 µM],-16%[38.3 µM],-9%,-2%
Cc1cc(C(=O)NCc2ccc(S(N)(=O)=O)cc2)ccc1[N+](=O)[O-],1.0%,1%,8%,10%,3%,-13%
Cc1cc(C(=O)NNC(=O)c2ccc(Cl)cc2)no1,2.1%,/,9%,/,-4%[9.22 µM],7%
Clc1ccccc1OCCCCN1CCCC1,-1.1%,1%,13%[46.1 µM],3%[38.3 µM],-11%,3%
COc1ccc(-c2nnc(SCCC(=O)O)n2C)cc1OC,-2.3%,0%,2%[46.1 µM],-2%,-2%,12%
COCCCNC(=O)c1ccc([N+](=O)[O-])c(Cl)c1,3.4%,1%,5%,-1%,-5%,-3%
COc1ccc(-c2cc(C(F)(F)F)nc(SCC(=O)Nc3ccc4c(c3)OCO4)n2)cc1,?,-1%,-6%,7%,11%,4%
Cc1cccc(-c2nnc(NC(=O)c3ccc(Cl)cc3)o2)c1,-3.0%,0%,-18%[46.1 µM],29%[38.3 µM],?,0%
COc1ccc2c(=O)c3c(=O)n(CCc4ccccc4)c(C(C)C)nc3oc2c1,0.8%,/,?,/,28%[9.22 µM],10%
COc1cc(NC(=O)c2ccc(Br)o2)ccc1NC(=O)C(C)C,-4.6%,0%,-24%[46.1 µM],1%[38.3 µM],2%,1%
COCC(C)NC(=O)CCSc1nc(-c2ccc(OC)cc2)cc(C(F)(F)F)n1 (stereo not drawn),1.2%,9%,-12%[46.1 µM],15%,-14%,12%
O=S(=O)(c1ccc(F)cc1)N1CCN(CC(O)COCc2cccs2)CC1 (stereo not drawn),-2.4%,13%,?,-6%[38.3 µM],-7%,-4%
O=C(/C=C/c1ccc([N+](=O)[O-])cc1)NCc1ccco1,0.0%,1%,-9%[46.1 µM],-2%,0%,-17%
CCCCCCn1c(CN2CCN(C)CC2)nc2c1c(=O)n(C)c(=O)n2C,-1.0%,-4%,6%[46.1 µM],3%,-24%,-16%
COc1ccccc1NC(=O)C(=O)N(c1cccnc1)C(C(=O)NC(C)(C)C)c1ccccc1F (stereo not drawn),-0.1%,0%,10%,-3%,13%[9.22 µM],17%
O=C(c1ccco1)N1CCN(c2ncnc3sc4c(c23)CCC4)CC1,2.9%,0%,-15%[7.67 µM],-6%[38.3 µM],-27%,-2%
COc1ccc2c(=O)c3c(=O)n(Cc4ccco4)c(C(C)C)nc3oc2c1,-1.0%,0%,-11%[46.1 µM],-4%,-14%,1%
Cc1ccc(S(=O)(=O)N(C)CCCC(=O)N2CCOCC2)cc1,-1.0%,-3%,11%[46.1 µM],2%[38.3 µM],-1%,9%
Cc1cc(C)cc(C(=O)NCC(=O)OCC(=O)N(C)c2ccccc2)c1,-0.4%,1%,0%,-9%,8%,2%
Cc1ccccc1-c1nc(-c2ccc(NC(=O)c3ccc(Br)o3)cc2)no1,5.0%,0%,-21%[46.1 µM],6%,-3%,1%
CN1CCNC(=O)C1CC(=O)NCCc1ccccc1F (stereo not drawn),1.1%,1%,-10%,0%,-2%[9.22 µM],3%
COc1ccc(C2CC(=O)NC3=C2C(=O)CCC3)cc1Cl (stereo not drawn),0.0%,-3%,-7%[46.1 µM],-5%[38.3 µM],4%,-1%
Cc1ccc(C)c(N2C(=O)c3ccc(C(=O)OCC(=O)c4c(N)n(C)c(=O)n(C)c4=O)cc3C2=O)c1,1.5%,-3%,12%,4%,-2%,0%
CC(C)[C@H](NC(=O)c1ccco1)C(=O)OCc1cc(=O)n2c(n1)sc1ccccc12,1.1%,/,2%,5%,8%[9.22 µM],?
Cc1ccc(/C=N/NC(=O)c2ccc3nc[nH]c3c2)o1,3.3%,/,-6%,/,-4%[9.22 µM],0%
O=C(CSc1ccccc1)Nc1cccc(NC(=O)c2ccco2)c1,-0.9%,-3%,-10%[46.1 µM],-12%[38.3 µM],25%,3%
COc1ccc(C2C(C(=O)NC(C)C)c3ccccc3C(=O)N2C)cc1OC (stereo not drawn),-1.0%,/,-4%[46.1 µM],/,-6%,0%
O=C(CSc1ncccc1C(=O)O)NCCC1=CCCCC1,-1.1%,10%,-2%[46.1 µM],-6%[38.3 µM],-1%,9%
Cc1nc(S/C(=C\c2ccc(OCc3ccccc3Cl)cc2)C(=O)O)n[nH]1,9.7%,-1%,-2%[46.1 µM],-3%[38.3 µM],8%,-3%
COc1cc2c(cc1OC)C(C(=O)N1CCOCC1)C(c1cccs1)N(C)C2=O (stereo not drawn),0.0%,-6%,-6%[46.1 µM],1%[38.3 µM],-15%,-2%
COc1cc2c(cc1OC)-c1cc(N3CCCCCC3)nc(=O)n1CC2,2.7%,-6%,1%[46.1 µM],17%,-11%,13%
O=C1CC(c2ccccc2)n2nc(NC(=O)c3ccccn3)nc2N1 (stereo not drawn),1.9%,-1%,?,-9%[38.3 µM],-2%[9.22 µM],0%
COc1cccc(/C=C(/C#N)c2ccc(Cl)cc2)c1OCc1cccc(C(=O)O)c1,-8.7%,/,?,/,-2%,3%
Cc1c(NC(=O)/C(C#N)=C/c2ccc(-c3ccc(Cl)cc3)o2)c(=O)n(-c2ccccc2)n1C,-1.0%,0%,6%,11%,15%[9.22 µM],-3%
COc1ccc(OC)c(Nc2nc(-c3ccccc3O)nc3ccccc23)c1,?,2%,-47%,?,13%,1%
O=C(Nc1ccc(S(=O)(=O)Nc2ncccn2)cc1)C1=NN(c2ccccc2)C(=O)CC1,-0.1%,/,-3%,/,-12%[9.22 µM],-2%
O=C(Nc1ccc2nc[nH]c2c1)c1ccco1,-0.7%,-24%,-12%[46.1 µM],-13%[38.3 µM],8%,1%
COc1ccc(Cl)c(Cn2c(NCc3ccco3)nc3c2c(=O)n(C)c(=O)n3C)c1,?,-1%,-18%[46.1 µM],-21%[38.3 µM],-7%,3%
COc1ccc(OCC(=O)Nc2cccc(C(=O)Nc3ccccc3C(=O)O)c2)cc1,-1.9%,0%,3%,-6%,13%,4%
COc1ccc(C2C(C(=O)NCCN3CCOCC3)c3ccccc3C(=O)N2C)cc1OC (stereo not drawn),0.0%,/,-2%[46.1 µM],/,?,1%
O=C(CN1CCN(S(=O)(=O)c2ccc(Br)cc2)CC1)N/N=C/c1cccs1,4.0%,-1%,-2%,1%,5%,0%
O=C(Nc1ncc(Cc2ccccc2Cl)s1)c1ccc([N+](=O)[O-])cc1,-1.1%,0%,-16%,11%,-19%,-5%
COc1cc2c(cc1OC)C(C(=O)N1CCCC1)C(c1ccccc1F)N(C)C2=O (stereo not drawn),0.9%,-6%,-10%[46.1 µM],6%,-1%,3%
c1ccc(-c2noc(-c3cccc4ccccc34)n2)nc1,-0.2%,-22%,-9%[46.1 µM],2%[38.3 µM],-9%,11%
COc1cccc(/C=C/C(=O)OCC(=O)c2ccc3c(c2)NC(=O)CO3)c1OC,2.1%,-1%,-1%,-1%,13%,1%
Cc1cc(C(F)(F)F)nc(-n2cc(-c3ccccc3)nn2)n1,-5.6%,0%,10%,1%,-17%,1%
O=C(COC(=O)c1ccccc1)NCc1ccco1,1.3%,-8%,-5%[46.1 µM],-5%[38.3 µM],-7%,?
Cc1cccc(/C=N/n2c(-c3ccncc3)n[nH]c2=S)c1,0.0%,4%,-10%,6%,-24%,1%
Cc1cc(C)n(-c2ccc(C(=O)OCC(=O)c3c(N)n(C)c(=O)n(C)c3=O)cc2)n1,-2.9%,0%,-9%[46.1 µM],9%[38.3 µM],-15%,11%
COc1ccc(-c2cc3ccccc3oc2=O)cc1NC(=O)c1cccnc1,-2.1%,3%,-22%[46.1 µM],-13%[38.3 µM],-30%,5%
O=C(Nc1nc(-c2ccccc2)cs1)c1ccco1,-1.0%,/,-3%,/,-11%[9.22 µM],0%
CCOC(=O)CCC(NC(=O)CC(=O)NC(CCC(=O)OCC)C(=O)OCC)C(=O)OCC (stereo not drawn),-3.1%,-1%,1%,-1%,16%[9.22 µM],7%
O=C(Nc1nnc(-c2ccc(Cl)cc2)o1)c1cccc(N2C(=O)CCC2=O)c1,-1.3%,-1%,-2%,-1%,-31%,-22%
CCn1cnc2cc(NC(=O)c3ccco3)ccc21,-3.7%,-16%,0%[46.1 µM],-5%,-4%,3%
CCCCc1nc(NCC2CCCO2)c(C#N)c2c1COC(C)(C)C2 (stereo not drawn),-0.8%,1%,-18%[46.1 µM],22%,?,1%
COCCn1c(-c2ccc(OC)cc2)nc2oc3cc(OC)ccc3c(=O)c2c1=O,0.0%,-5%,-17%[46.1 µM],-16%[38.3 µM],16%,4%
COc1ccc(NC(=O)/C(C#N)=C/C=C/c2ccco2)cc1,-0.9%,-5%,-2%,-7%,25%,-16%

# Arranged by length of the SMILES (lowest first): 4 of the compounds above
SMILES,Epigenetic derep,Luc counter,NPSR antagonist,IMPase Li inh,HTT aggregate,CBFb RUNX1 block
COc1ccc(NC(=O)/C(C#N)=C/C=C/c2ccco2)cc1,-0.9%,-5%,-2%,-7%,25%,-16%
CCCCc1nc(NCC2CCCO2)c(C#N)c2c1COC(C)(C)C2 (stereo not drawn),-0.8%,1%,-18%[46.1 µM],22%,?,1%
O=C(Nc1nnc(-c2ccc(Cl)cc2)o1)c1cccc(N2C(=O)CCC2=O)c1,-1.3%,-1%,-2%,-1%,-31%,-22%
CCOC(=O)CCC(NC(=O)CC(=O)NC(CCC(=O)OCC)C(=O)OCC)C(=O)OCC (stereo not drawn),-3.1%,-1%,1%,-1%,16%[9.22 µM],7%

# Next entries:
SMILES,Epigenetic derep,Luc counter,NPSR antagonist,IMPase Li inh,HTT aggregate,CBFb RUNX1 block
Nc1ccc(C(=O)OC2CCOC2=O)cc1[N+](=O)[O-] (stereo not drawn),-0.9%,0%,8%,-2%,-2%,-8%
CC(=O)c1sc2nc(SCC(=O)N3CCCCC3)[nH]c(=O)c2c1C,-1.1%,4%,30%[46.1 µM],11µM*,27%,-24%
O=C(/C=C/c1ccccc1Cl)NCCc1ccc(F)cc1,0.0%,0%,-16%,-4%,-21%,4%
O=C(O)c1ccc2nc3c(nc2c1)-c1ccccc1C3=O,-0.5%,?,-11%,-1%,?,11%
COc1ccc(CNC(=O)C2=C(C)C(=O)OC23CCC(C)CC3)cc1 (stereo not drawn),6.7%,3%,-2%[46.1 µM],-4%[38.3 µM],-23%,-3%
Cc1cc(C)nc(SCSc2nc(C)cc(C)n2)n1,1.0%,-2%,-2%[46.1 µM],12%[38.3 µM],19%,5%
C=CCSc1n[nH]c(-c2cccs2)n1,-3.2%,/,-18%,/,-4%[9.22 µM],16%

# Source: PubChem

# An excerpt. The share of hits here may be higher or lower than overall.
